2A firefly: Primary qHTS Assay for Foot and Mouth Disease Virus Antivirals against NCGC Sytravon and CBC Compound Libraries: Firefly Luciferase Signal; HEK cells with a luciferase reporter of 2A StopGo recoding; Potency, µM (highest dose often 57.5 µM), without a hit: at the top dose signal change, negative = less light; actives 0.23% (n = 120,000); AID 1745856, 2022; active = well fitted falling curve with a large enough effect; inconclusive = small, poorly fitted or top-dose-only effect; inactive = no such curve, though single readings can be large or run the other way; note: nearly all actives have a fitted effect of over 60% in size; overnight with compound
StopGo RLuc: Primary qHTS Assay for Foot and Mouth Disease Virus Antivirals against NCGC Sytravon and CBC Compound Libraries: Renilla Luciferase Signal. HEK cells with a luciferase reporter of 2A StopGo recoding. Potency, µM (series often up to 57.5 µM), without a hit: at the top dose signal change, negative = less light. actives 0.32% (n = 120,000); active means well fitted falling curve with a large enough effect; inconclusive means small, poorly fitted or top-dose-only effect; inactive means no such curve, though single readings can be large or run the other way; note: nearly all actives have a fitted effect of over 55% in size; overnight with compound
* marks the source's active call; other numbers are inactive results; ? = inconclusive; & = joins results of further samples; [ ] = dose if it differs, or a comment. % is set by controls: 0 for no effect and ±100 for the full control effect; potency is the fitted concentration of half-maximal effect. Only part of the results is shown; rates above refer to the full screens.

Start of the data: the first three records as a preview:
SMILES	2A firefly	StopGo RLuc
CCc1ccc(S(=O)(=O)c2nnn3c2nc(N2CCN(c4ccccc4)CC2)c2cc(Cl)ccc23)cc1	-6.7%	0.9%
O=C(CN1C(=O)NC2(CCCC2)C1=O)Nc1cccc2cccnc12	13.7%	5.9%
COc1ccc(CCNC(=O)C2CCN(c3nc4ccc(Cl)cc4[nH]3)CC2)cc1OC	-17.8%	-21.8%

The whole of this part, from the start:
SMILES	2A firefly	StopGo RLuc
CCc1ccc(S(=O)(=O)c2nnn3c2nc(N2CCN(c4ccccc4)CC2)c2cc(Cl)ccc23)cc1	-6.7%	0.9%
O=C(CN1C(=O)NC2(CCCC2)C1=O)Nc1cccc2cccnc12	13.7%	5.9%
COc1ccc(CCNC(=O)C2CCN(c3nc4ccc(Cl)cc4[nH]3)CC2)cc1OC	-17.8%	-21.8%
CC(Sc1ccccc1)C(=O)Nc1cccc(-n2cnnn2)c1 (stereo not given)	17.5%	25.0%
Cc1ccc(C(=O)N2CCN(Cc3ncc(C(C)(C)C)o3)CC2)cc1	6.1%	4.3%
Cc1cccc(-c2nc3cc(NC(=O)Cc4ccc(Cl)cc4)ccc3o2)c1	0.3%	7.3%
N#Cc1nc(COc2ccccc2)oc1NCc1cccnc1	72.4%[activator]	5.4%
Cc1ccc2c(n1)sc1c(=O)n(-c3cccc(C(F)(F)F)c3)nnc12	6.6%	21.5%
COc1cccc(OC)c1C(=O)Nc1ccc2c(c1)N(C(C)=O)CCC2	2.6%	1.4%
COc1ccc(OC)c(Nc2ncnc3c2cnn3-c2ccc(C)cc2)c1	30.8%[activator]	-9.9%
O=C(CSc1nnc(-c2cccnc2)n1C1CC1)c1cc2ccccc2o1	-18.8%	-16.0%
Cc1nc(SCC(=O)Nc2sc3c(c2C#N)CCCCC3)c2ccccc2n1	25.1%	-17.4%
CCS(=O)(=O)c1ncc(Cl)c(C(=O)N2CCN(c3cccc(Cl)c3)CC2)n1	?	1.2%
CCC(=O)N1CCc2cc(S(=O)(=O)CCC(=O)Nc3ccc(OC(F)(F)F)cc3)ccc21	-2.0%	11.6%
CN(CC(=O)Nc1ccc(Cl)cc1C(F)(F)F)C1CCc2ccccc21 (stereo not given)	11.6%	9.6%
CCC(=O)Nc1nonc1-c1ccc(Cl)cc1	-1.5%	19.5%
CCC1CCc2c(sc(NC(=O)CCC(=O)O)c2C(=O)Nc2ccccc2C)C1 (stereo not given)	16.1%	-0.1%
CC(=O)c1c(C)[nH]c(C(=O)c2oc3ccc(Br)cc3c2C)c1C	66.2%[activator]	52.3%[activator]
CCc1cccc(NC(=O)c2cnc(SC)nc2-c2ccccc2)c1	31.3%[activator]	60.0%[activator]
Cc1ccc2occ(CC(=O)Nc3c(C)cccc3C)c2c1	-24.6%	-4.8%
N#Cc1ccc(C(=O)NC2CCCCC2C(F)(F)F)cc1 (stereo not given)	7.0%	7.8%
COCCOc1ccc(/C=C/C(=O)c2ccc(C#N)cc2)cc1OC	10.5%	13.4%
COc1ccc(OCCC(=O)Nc2cccc3cccnc23)cc1	28.2%	13.5%
Cc1ccc(S(=O)(=O)c2cn(Cc3ccccc3)c3cc(N4CCCC4)c(F)cc3c2=O)cc1C	-9.3%	4.6%
CC(=O)c1c(C)[nH]c(C(=O)c2cc3cc(Cl)ccc3o2)c1C	0.0%	-43.0%
CC1CCCN(C(=O)CSc2nc3ccccc3c(=O)[nH]2)C1 (stereo not given)	80.3%[activator]	18.9%
Cc1cccc2c(C(=O)O)cc(-c3cccs3)nc12	12.1%	-3.7%
Cc1cc(NCc2ccc(Cl)cc2)n2cnnc2n1	-17.8%	?
CCOC(=O)Cc1csc(SCC(=O)NC2CCC(C)CC2)n1 (stereo not given)	11.4%	-4.8%
COc1ccccc1CC(=O)NCc1cccs1	39.4%[activator]	16.8%
COc1ccc(NCCN)cc1	0.0%	-0.7%
Cc1ccc2[nH]c(C(=O)N3CCN(c4ccccc4)CC3)cc2c1	-2.0%	-6.3%
CCCCN(CCCC)C(=O)CN(C)S(=O)(=O)c1ccc2c(c1)c(=O)n(C)c(=O)n2C	-0.7%	1.8%
Cn1c(NCc2ccco2)nc2c1c(=O)n(Cc1ccc(Cl)cc1)c(=O)n2C	-25.2%	-9.5%
CC(C)(C)c1ccccc1NC(=O)COc1ncnc2ccccc12	-0.1%	-3.7%
CCCCNC(=O)C(=O)NCCc1c[nH]c2ccccc12	2.5%	-1.5%
COC(=O)c1ccc(CN)o1	1.2%	2.7%
CCCC(=O)Nc1ccc2c(c1)nc(CN1CCN(C(=O)OCC)CC1)n2C(C)C	16.9%	-0.5%
O=C(Cc1ccc(F)cc1)Nc1c(NC2CCCCC2)c2ccccc2oc1=O	16.9%	37.2%[activator]
CCC(C)[C@H](NC(=O)NCCc1ccc(Cl)cc1)C(=O)O (stereo not given in full)	-1.1%	-5.9%
N#CCCN(C(=O)COc1ncnc2sc3c(c12)CCC3)c1ccccc1	-5.7%	9.7%
CCC(C(=O)NC1CCCCC1)n1c(SCc2cccc(F)c2)nc2ccncc21 (stereo not given)	20.3%	-13.0%
Cn1c(=O)c2c(nc(NCc3ccc4c(c3)OCO4)n2Cc2cccc3ccccc23)n(C)c1=O	1.8%	3.0%
COc1ccccc1Cn1c(SCC(=O)C(C)(C)C)nc2ccccc2c1=O	-15.2%	6.3%
O=C(NC1CC1)C(NCc1ccc(C(F)(F)F)cc1)c1ccccc1 (stereo not given)	-8.0%	-10.6%

Compounds listed so far that contain a thiophene ring, fused or not (six):
SMILES	2A firefly	StopGo RLuc
Cc1ccc2c(n1)sc1c(=O)n(-c3cccc(C(F)(F)F)c3)nnc12	6.6%	21.5%
Cc1nc(SCC(=O)Nc2sc3c(c2C#N)CCCCC3)c2ccccc2n1	25.1%	-17.4%
CCC1CCc2c(sc(NC(=O)CCC(=O)O)c2C(=O)Nc2ccccc2C)C1 (stereo not given)	16.1%	-0.1%
Cc1cccc2c(C(=O)O)cc(-c3cccs3)nc12	12.1%	-3.7%
COc1ccccc1CC(=O)NCc1cccs1	39.4%[activator]	16.8%
N#CCCN(C(=O)COc1ncnc2sc3c(c12)CCC3)c1ccccc1	-5.7%	9.7%

Other structures.
SMILES	2A firefly	StopGo RLuc
CC(C)c1cc(C(=O)N2CCC(C(N)=O)CC2)c2ccccc2n1	0.0%	183.8%[activator]
Cc1cccc(C)c1Nc1c(-c2cccs2)nc2ncccn12	0.0%	-17.5%
COC(=O)CC1Oc2ccccc2-n2cc(-c3ccc(C)cc3)nc21 (stereo not given)	19.8%&14.3%	9.4%&2.7%
Fc1ccc(OCc2nnc(-c3ccc(Br)o3)o2)cc1	24.9%	0.0%
COc1cccc(/C=C/C(=O)Nc2ccc3nc(N4CCN(C)CC4)cc(C)c3c2)c1OC	73.3%[activator]	-15.0%
CCOc1ccccc1NC(=O)N(CC)Cc1cc(=O)[nH]c2c(C)cc(C)cc12	-15.9%	-12.7%
CCOc1ccc(NC(=O)CSc2nc3c(oc4ccccc43)c(=O)n2CCOC)cc1	5.2%	-4.8%
Cc1ccc(-c2nc(C)c(CCNC(=O)C(=O)Nc3cc(C)ccc3C)s2)cc1	36.2%[activator]	3.1%
CCOc1ccc(C2CC(=O)c3c([nH]c(C(=O)OCCOc4ccccc4)c3C)C2)cc1 (stereo not given)	30.1%[activator]	11.8%
COc1ccccc1N1CCN(c2ncnc3c2cnn3C)CC1	8.6%	-11.7%
CCOC(=O)c1cccc(NC(=O)c2cnc3sc(N4CCOCC4)nn3c2=O)c1	3.3%	-5.1%
NC[C@H]1O[C@H](O[C@H]2[C@H](O[C@@H]3O[C@H](CO)[C@@H](O)[C@H]3O)C(O)[C@H](N)C[C@@H]2N)[C@H](N)[C@@H](O)[C@@H]1O (stereo not given in full)	-4.1%[11.5 µM]	10.1%[11.5 µM]
COCCn1c(C)c(C)c(S(=O)(=O)c2ccc(OC)cc2)c1NC(=O)c1ccco1	-9.0%	0.0%
Cc1ccc(NC(=O)CSc2nc(-c3ccccc3)nc3cc(=O)[nH]n23)cc1	6.2%	-2.7%
Cc1ccccc1Cn1nc(C)c(NC(=O)c2cc(CC(C)C)on2)c1C	-29.5%	?
Cc1cccc(Cn2c(SCC(=O)Nc3ccccc3)nc3c2c(=O)n(C)c(=O)n3C)c1	-7.5%	-3.7%
O=C(COC(=O)c1ccccc1O)Nc1ccccc1N1CCCC1=O	3.0%	-4.2%
Cc1ccc2c(=O)cc(C(=O)Nc3ccc(S(N)(=O)=O)cc3)oc2c1C	0.0%	12.8%
COC(=O)c1c(C)sc2c1OC(N)=C(C#N)C21C(=O)N(Cc2ccccc2F)c2ccccc21 (stereo not given)	-29.4%	-21.8%
CCCCC1C(=O)NC(=O)N(C2CCCCC2)C1=O (stereo not given)	-12.9%	-5.2%
Cc1sc2ncn(CC(=O)N3CCN(c4ccc(F)cc4)CC3)c(=O)c2c1S(=O)(=O)N1CCCCC1	-7.0%	10.6%
COc1cccc(N2CCN(C(=O)C3CCC(CNS(=O)(=O)c4ccc(Br)s4)CC3)CC2)c1 (stereo not given)	-27.3%	?
COC(=O)c1cc(-c2c(C)oc3cc(OC(C)C)ccc3c2=O)c(C)o1	?	?
CCOC(=O)N1CCN(C(=O)CN(c2ccc(C)cc2C)S(=O)(=O)c2ccccc2)CC1	-9.8%	7.1%
CC(C)C(NC(=O)CSc1ccc2c(c1)OCCO2)c1ccc2c(c1)OCCCO2 (stereo not given)	17.8%	-11.4%[1.06 µM]
O=C(O)c1nn(CC(=O)N(CCc2ccccc2)Cc2ccccc2)c(=O)c2ccccc12	-3.5%	-7.5%
COc1cc(NC(=O)c2ccc(C)c(Cl)c2)ccc1NC(=O)c1cc2ccccc2o1	7.7%	-5.5%
Cn1c(=O)c2c(nc(N3CCOCC3)n2Cc2ccccc2Cl)n(C)c1=O	-21.8%	-13.8%
CCOc1ccc(/C=C/C(=O)c2cc3ccccc3oc2=O)cc1OC	4.8%	4.0%
Cc1oc2ncn(C)c(=O)c2c1C(=O)NCc1ccc(Cl)cc1	-1.0%	1.6%
CS(=O)(=O)N(Cc1cc2ccccc2[nH]c1=O)C1CCCCC1	-8.2%	-4.1%
COCc1nc2cccnc2n1C1CCN(S(=O)(=O)c2ccc(Cl)s2)CC1	-6.5%	21.9%
CCC1CN(C(=O)N2CCC(C(=O)NCc3cc(OC)c(OC)c(OC)c3)CC2)c2ccccc2O1 (stereo not given)	-14.4%&-13.2%	-8.7%&-2.1%
NC(N)=N/N=C/c1ccc(Cl)c([N+](=O)[O-])c1	-10.8%	-9.5%
Cc1cc(NC(=O)NCc2ccc3c(c2)CCN3C(=O)c2ccccc2)ccc1Br	-3.9%	-12.0%
CC1=C(C(=O)OCC2CCCCC2)C(c2ccccc2F)CC(=O)N1 (stereo not given)	5.8%	13.3%
N#Cc1cccc(/C=C2\CCOc3cc(Br)ccc3C2=O)c1	?	?
CSc1ccc(NC(=O)Cc2cccs2)cc1	55.0%[activator]	44.1%[activator]
O=C(Cn1nnc(-c2cccc(C(F)(F)F)c2)n1)c1cccc(Br)c1	-4.3%	-0.9%
CCOC(=O)c1sc(NC(=O)c2cccc(S(=O)(=O)N3CCCCC3C)c2)cc1C (stereo not given)	20.0%	29.9%
CCN(c1ccc(C)cc1C)S(=O)(=O)c1nnc(NC(=O)c2ccc(F)cc2)s1	?	?
N#Cc1ncn(Cc2noc(-c3ccc(F)cc3)n2)n1	-3.4%	-17.9%
Cc1ccc(SCCn2cc(S(=O)(=O)N3CCCC3)ccc2=O)cc1	-20.1%	-20.8%
CC(NC(=O)CSc1ncnc2ccccc12)c1ccccc1 (stereo not given)	9.0%	-11.0%
CC(=O)N1CCc2cc(Br)cc(S(=O)(=O)CCC(=O)NCc3ccc(F)cc3)c21	-5.1%	0.0%
C[N+](C)(C)CC#CCCCC#CC[N+](C)(C)C	11.8%	11.5%

2 of the compounds above, as a markdown table:
| molecule | 2A firefly | StopGo RLuc |
| --- | --- | --- |
| Cc1cc(NC(=O)NCc2ccc3c(c2)CCN3C(=O)c2ccccc2)ccc1Br | -3.9% | -12.0% |
| CC1=C(C(=O)OCC2CCCCC2)C(c2ccccc2F)CC(=O)N1 (stereo not given) | 5.8% | 13.3% |

Compound activity (PubChem BioAssay)
